Tg IFNy HTS: blocks Toxoplasma gondii growth in the presence of IFN-gamma; Toxoplasma gondii growth in IFN-gamma-treated host cells; stronger effect = lower value; reference of the scale not given here; 69,000 compounds, 3.8% hits; AID 1259416; activity change, negative = inhibition, %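 (about 20 µM by stock and volumes)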;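 active = below -70%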;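 note: host cells are HeLa cells infected with Toxoplasma gondii; parasite growth read as luciferase light; one replicate is shown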
An asterisk follows results filed as active; i = inactive; & = joins results of further samples.

(1) Cc1cccc(NC(=O)c2cc3cccnc3n(Cc3ccc(F)cc3)c2=O)c1
  Tg IFNy HTS = 26
(2) COc1ccc(CCNC(=O)c2cc3cccnc3n(Cc3ccc(F)cc3)c2=O)cc1OC
  Tg IFNy HTS = -43
(3) Clc1ccc(Cl)c(C2NCCc3[nH]cnc32)c1 (configuration not stated)
  Tg IFNy HTS = 4
(4) COc1cccc(CCNC(=O)c2cc3cccnc3n(Cc3ccc(F)cc3)c2=O)c1
  Tg IFNy HTS = 35
(5) CN(C)C[C@@H]1CC2CN(c3ncc(F)cn3)CCC2N1C (some centres not stated)
  Tg IFNy HTS = -57
(6) CC(C(=O)OC1CC2CCC(C1)N2C)c1ccc(Br)cc1 (configuration not stated)
  Tg IFNy HTS = 8&7
(7) COc1ccc(CCNCc2cccnc2)cc1OC
  Tg IFNy HTS = 4
(8) Cc1nc(N2CCCN3CCC[C@H]3C2)c2cnn(C)c2n1
  Tg IFNy HTS = 2
(9) Cn1cc(N2C[C@@H]3CN(CCO)C[C@@H]3C2=O)cn1
  Tg IFNy HTS = 23
(10) O=C(/C=C/c1ccc(Cl)cc1)C1C(=O)NC23CCCCC2C1c1ccccc1O3 (configuration not stated)
  Tg IFNy HTS = 12

Among those listed so far, 7 have a halogen:
(1) Cc1cccc(NC(=O)c2cc3cccnc3n(Cc3ccc(F)cc3)c2=O)c1
  Tg IFNy HTS = 26
(2) COc1ccc(CCNC(=O)c2cc3cccnc3n(Cc3ccc(F)cc3)c2=O)cc1OC
  Tg IFNy HTS = -43
(3) Clc1ccc(Cl)c(C2NCCc3[nH]cnc32)c1 (configuration not stated)
  Tg IFNy HTS = 4
(4) COc1cccc(CCNC(=O)c2cc3cccnc3n(Cc3ccc(F)cc3)c2=O)c1
  Tg IFNy HTS = 35
(5) CN(C)C[C@@H]1CC2CN(c3ncc(F)cn3)CCC2N1C (some centres not stated)
  Tg IFNy HTS = -57
(6) CC(C(=O)OC1CC2CCC(C1)N2C)c1ccc(Br)cc1 (configuration not stated)
  Tg IFNy HTS = 8&7
(10) O=C(/C=C/c1ccc(Cl)cc1)C1C(=O)NC23CCCCC2C1c1ccccc1O3 (configuration not stated)
  Tg IFNy HTS = 12

The list continues:
(11) CCCCCCC(C)(C)c1ccc(C2CC(O)CCC2CCCO)c(O)c1 (configuration not stated)
  Tg IFNy HTS = -79*
(12) C/C=C/c1ccc(C2[C@@H]3CN(Cc4cncnc4)C[C@H]2N3)cc1 (some centres not stated)
  Tg IFNy HTS = 15
(13) C[C@](O)(COc1ccc(C#N)cc1)C(=O)Nc1ccc(C#N)c(C(F)(F)F)c1
  Tg IFNy HTS = -5
(14) COCCCN1CCCC12CCN(c1ccc(C)nn1)CC2
  Tg IFNy HTS = 3
(15) CN1CCN(C(=O)OC2c3nccnc3C(=O)N2c2ccc(Cl)cn2)CC1 (configuration not stated)
  Tg IFNy HTS = -36&13
(16) COCC12CCCOC1CCN(CC1CC1)C2 (configuration not stated)
  Tg IFNy HTS = 25
(17) c1cnc(N2CCOCC3(CCCNC3)C2)cn1 (configuration not stated)
  Tg IFNy HTS = 4
(18) O=C(Nc1ccccc1C(F)(F)F)c1cc2cccnc2n(Cc2ccc(F)cc2)c1=O
  Tg IFNy HTS = -34
(19) COC(=O)c1ccc(/C=C/C(=O)C2C(=O)N(C)C3(C)CC2c2cc(Cl)ccc2O3)cc1 (configuration not stated)
  Tg IFNy HTS = 1
(20) CC1CC1C(=O)N1C[C@H]2CN(Cc3ccccn3)C[C@@H]2C1 (some centres not stated)
  Tg IFNy HTS = 207

Quoted from the listing:
Tg IFNy HTS result of entry 2 : -43
Tg IFNy HTS result of entry 20 : 207
Tg IFNy HTS result of entry 16 : 25
Tg IFNy HTS result of entry 15 : -36&13
Tg IFNy HTS result of entry 9 : 23
Tg IFNy HTS result of entry 5 : -57

Later entries.
(21) COc1ccccc1-c1ccc(N2C[C@@H]3C[C@@H](C2)c2cccc(=O)n2C3)nn1
  Tg IFNy HTS = -2
(22) O=Cc1cn(Cc2ccc(Cl)cc2)c2ccccc12
  Tg IFNy HTS = 26
(23) Cc1cnc(N2CCN3C[C@H](Oc4cncnc4)C[C@@H]3C2)nc1
  Tg IFNy HTS = 10
(24) CN1CCN(C)C2(CCN(c3cccnc3)CC2)C1=O
  Tg IFNy HTS = 2
(25) CC(NC(=O)c1c(O)c2cccnc2n(Cc2ccccc2)c1=O)c1ccccc1 (configuration not stated)
  Tg IFNy HTS = -120*
(26) COCc1cncc2c1CCN(S(=O)(=O)C1CC1)C2
  Tg IFNy HTS = 16
(27) CC12CN3CC(C)(CN(C1)C3c1cccs1)C2=O (configuration not stated)
  Tg IFNy HTS = 5
(28) c1cc2c(c(N3CCNCC3)c1)OCCO2
  Tg IFNy HTS = 2
(29) COCCN1C[C@H]2[C@H](OC)CCN(S(=O)(=O)c3cccnc3)[C@H]2C1
  Tg IFNy HTS = 5
(30) C=CCN1C[C@H]2CN(c3ccc(C)nn3)CCC[C@]2(C(=O)O)C1
  Tg IFNy HTS = -9

Retrieved by compound from the entries so far, two records:
(29) COCCN1C[C@H]2[C@H](OC)CCN(S(=O)(=O)c3cccnc3)[C@H]2C1
  Tg IFNy HTS = 5
(21) COc1ccccc1-c1ccc(N2C[C@@H]3C[C@@H](C2)c2cccc(=O)n2C3)nn1
  Tg IFNy HTS = -2

Continued:
(31) C=CCN1CC[C@@H]2[C@@H]1CCN2Cc1csc(C)n1
  Tg IFNy HTS = -2
(32) Cc1nc(C)c(CC(=O)N2CCCC3(CCNC3)C2)c(=O)[nH]1 (configuration not stated)
  Tg IFNy HTS = 8
(33) CN1CCC(OC(=O)c2ccccc2)(c2ccccc2)C(C)(C)C1 (configuration not stated)
  Tg IFNy HTS = -66
(34) COc1ccc(OC)c([C@@H](O)[C@H](C)NC(C)(C)C)c1
  Tg IFNy HTS = -16
(35) CC(C)CN1CCC2(CC1)C(=O)Nc1ccc(C(=O)NC3CC3)cc12
  Tg IFNy HTS = 35
(36) COC(=O)c1ccccc1NC(=O)c1cc2cccnc2n(Cc2ccc(F)cc2)c1=O
  Tg IFNy HTS = 28
(37) CN1CCO[C@H]2CCN(C(=O)C3CC=CC3)C[C@H]21
  Tg IFNy HTS = 202
(38) CC(=O)N1C[C@H]2CN(CC3CC3)C[C@@H]2c2ccccc21
  Tg IFNy HTS = i
(39) COC(=O)c1ccc(NC(=O)c2cc3cccnc3n(Cc3ccccc3)c2=O)cc1
  Tg IFNy HTS = 99
(40) Cc1ccc(CN2C[C@H](OCc3ccccn3)[C@@H]3COC[C@@H]32)o1
  Tg IFNy HTS = i

(41) Cc1ccsc1CN1CC[C@@]2(C[C@H](OCc3cccnc3)CO2)C1
  Tg IFNy HTS = -2
(42) O=C1NCN(c2ccccc2)C12CCN(CCCOc1ccc(F)cc1)CC2
  Tg IFNy HTS = 2
(43) CN1CCC[C@@H]2[C@H]1[C@@H](c1ccc(F)cc1)CN2C(=O)Cc1ccc(F)cc1
  Tg IFNy HTS = -1
(44) Cn1cc(C(=O)NC2CC3(CCN(Cc4ccccn4)C3)C2)cn1 (configuration not stated)
  Tg IFNy HTS = -1
(45) Cc1noc(C)c1CN1CCO[C@@H]2[C@H]1CC[C@H]2Oc1ccccn1
  Tg IFNy HTS = -45
(46) O=C(Nc1ccc(C(F)(F)F)cc1)c1cc2cccnc2n(Cc2ccccc2)c1=O
  Tg IFNy HTS = 40
(47) CCOCC(=O)N1C[C@H]2CNC[C@H]2C1
  Tg IFNy HTS = -69
(48) O=C(Nc1ccc(F)cc1F)c1cc2cccnc2n(Cc2ccc(Cl)cc2)c1=O
  Tg IFNy HTS = 94
(49) Cc1ccc(NC(=O)c2cc3cccnc3n(Cc3ccc(Cl)cc3)c2=O)c(C)c1
  Tg IFNy HTS = -13
(50) O=C(NCCc1cnc2ccccn12)C1CC2(CCNCC2)CN1 (configuration not stated)
  Tg IFNy HTS = 1

(51) O=C(COc1cccnc1)N1CCCC2(CCNC2)C1 (configuration not stated)
  Tg IFNy HTS = -2
(52) COCCn1c(C(=O)O)cc2cc(Cl)ccc21
  Tg IFNy HTS = 221
(53) COc1cccc(CCNC(=O)c2cc3cccnc3n(Cc3ccccc3F)c2=O)c1
  Tg IFNy HTS = 41
(54) Cc1cnc(N2CCCC3(CCCN3Cc3cccnc3)C2)nc1 (configuration not stated)
  Tg IFNy HTS = -14
(55) c1ccc(O[C@@H]2CC[C@@H]3[C@H]2OCCN3CC2CCOCC2)nc1
  Tg IFNy HTS = 5
(56) CCS(=O)(=O)N1CC[C@@H]2OCCN(Cc3cccnc3)[C@@H]2C1
  Tg IFNy HTS = 1
(57) OCC1(CO)COC(c2cccnc2)N1 (configuration not stated)
  Tg IFNy HTS = 9
(58) COC(=O)C[C@@](O)(CCC(C)(C)O)C(=O)O[C@@H]1C(OC)=C[C@]23CCCN2CCc2cc4c(cc2[C@@H]13)OCO4
  Tg IFNy HTS = -84*
(59) COc1ccc2c(c1O)-c1cc(O)cc3c1[C@@H](C2)N(C)CC3
  Tg IFNy HTS = 2
(60) Cc1ccc(Cl)cc1NC(=O)c1cc2cccnc2n(Cc2ccccc2)c1=O
  Tg IFNy HTS = 40

(61) Cc1cc(CN2C[C@H]3COC[C@H](CC(=O)N(C)C)[C@@H]3C2)no1
  Tg IFNy HTS = 6
(62) CCCN1CCC[C@@H]2Cc3[nH]ncc3C[C@H]21
  Tg IFNy HTS = -73*
(63) CCOc1ccc(NC(=O)c2cc3cccnc3n(Cc3ccccc3)c2=O)cc1
  Tg IFNy HTS = 103
(64) C[C@H]1CN([C@@H](C)CO)C(=O)CCCn2nncc2CO[C@@H]1CN(C)C(=O)Oc1cccc2ccccc12
  Tg IFNy HTS = 210
(65) Cc1noc(C)c1CN1CCO[C@H]2CN(C(=O)c3cccs3)C[C@@H]21
  Tg IFNy HTS = -3
(66) CCC(c1ccc(F)cc1)n1cc(C(=O)Nc2ccc3nc[nH]c(=O)c3c2)nn1 (configuration not stated)
  Tg IFNy HTS = -43
(67) CN(C)CCNC(=O)c1cc2cccnc2n(Cc2ccc(F)cc2)c1=O
  Tg IFNy HTS = -40
(68) CC(CCc1ccccc1)NC(=O)c1cc2cccnc2n(Cc2ccc(Cl)cc2)c1=O (configuration not stated)
  Tg IFNy HTS = 42
(69) O=C(NCCc1ccccc1)c1cc2cccnc2n(Cc2ccccc2F)c1=O
  Tg IFNy HTS = 4
(70) CCc1cnc(N2CCN3C[C@H](OCC4CC4)C[C@@H]3C2)nc1
  Tg IFNy HTS = -15

Ordered by length of the SMILES (highest first): seven of the compounds above.
(64) C[C@H]1CN([C@@H](C)CO)C(=O)CCCn2nncc2CO[C@@H]1CN(C)C(=O)Oc1cccc2ccccc12
  Tg IFNy HTS = 210
(66) CCC(c1ccc(F)cc1)n1cc(C(=O)Nc2ccc3nc[nH]c(=O)c3c2)nn1 (configuration not stated)
  Tg IFNy HTS = -43
(68) CC(CCc1ccccc1)NC(=O)c1cc2cccnc2n(Cc2ccc(Cl)cc2)c1=O (configuration not stated)
  Tg IFNy HTS = 42
(65) Cc1noc(C)c1CN1CCO[C@H]2CN(C(=O)c3cccs3)C[C@@H]21
  Tg IFNy HTS = -3
(69) O=C(NCCc1ccccc1)c1cc2cccnc2n(Cc2ccccc2F)c1=O
  Tg IFNy HTS = 4
(67) CN(C)CCNC(=O)c1cc2cccnc2n(Cc2ccc(F)cc2)c1=O
  Tg IFNy HTS = -40
(62) CCCN1CCC[C@@H]2Cc3[nH]ncc3C[C@H]21
  Tg IFNy HTS = -73*

Other entries follow.
(71) O=P(O)(NCCCl)NCCCl
  Tg IFNy HTS = 21
(72) CCOc1ccccc1-n1c(C(C)N2CCN(C(=O)COc3ccc(Cl)cc3)CC2)nc2ccccc2c1=O (configuration not stated)
  Tg IFNy HTS = -64
(73) CC(NC(=O)c1cc2cccnc2n(Cc2ccc(Cl)cc2)c1=O)c1ccccc1 (configuration not stated)
  Tg IFNy HTS = -13
(74) CC(C)(C)NCC(O)c1ccccc1Cl (configuration not stated)
  Tg IFNy HTS = -27
(75) c1cnc(N2CCCC3(CCN(Cc4ccncc4)C3)C2)nc1 (configuration not stated)
  Tg IFNy HTS = 60
(76) C/C=C/c1ccc(C2[C@@H]3CN(S(C)(=O)=O)C[C@H]2N3)cc1 (some centres not stated)
  Tg IFNy HTS = 4
(77) O=C(NC1CC2(CCN(Cc3ccccn3)C2)C1)c1cnccn1 (configuration not stated)
  Tg IFNy HTS = 3
(78) O=C(O)/C=C/CO
  Tg IFNy HTS = -28
(79) O=C(N1c2ccccc2[C@@H]2CNCC[C@@H]21)C(F)(F)F
  Tg IFNy HTS = 19
(80) CN(C)c1ccc(NC(=O)c2cc3cccnc3n(Cc3ccc(F)cc3)c2=O)cc1
  Tg IFNy HTS = 149

Screening data from PubChem.

Some of the compounds tested, so the mix of outcomes need not match the whole.
